Screens from PubChem BioAssay.
CtBP-E1A blk: inhibitors of CtBP/E1A interaction; activity change, % (test concentration not listed); AlphaScreen GST-E1A/His-CtBP binding, 1536-well; hits give low values; control for the full effect not named in the record; 340,000 tested, 0.49% active; in the data active means activity change below about -65%; inconclusive means about -30% to -65%; inactive means above about -30%; note: % is set by controls: 0 for no effect and ±100 for the full control effect; compound concentration not given in the record
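Steps: dispense buffer (Tris pH 8.0, NaCl 300 mM, TCEP 1 mM, BSA, Tween 20); add 5X protein mix (GST-E1A, His-CtBP, 125 nM each); pin 23 nL compound; 2 h at 37 °C, dark; add 5X beads (50 ug/mL); 1 h; read.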
PINK1 modulator: PINK1 expression modulation; PINK1 immunofluorescence, high-content cytometry, 24 h; Potency, µM (series often up to 76.6 µM), for inactives: at the highest dose activation (PINK1 increase), most hits filed as activators; 410,000 tested, 0.2% active; AID 624263; active = well fitted activation curve with a large enough effect; inconclusive = small, poorly fitted or top-dose-only effect; inactive = flat fitted curve, though single readings scatter; cell line not stated here;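 note: potency is the fitted concentration of half-maximal effect; % of control where 0% means no effect; nearly all actives have a fitted effect of over 65% in size; a mitochondrial uncoupler was the plate control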
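Fluorescence from anti-PINK1 antibody, together with nuclear and cell stains, was scanned on a laser-scanning cytometer. Before staining, stable-line cells were incubated 24 hours with compounds at 5 concentrations; primary antibody 12 h at 10 degrees C.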
TRPML1 agonist: human mucolipin-1 channel agonism. TRPML1-expressing cells, Ca2+ dye fluorescence, FDSS; host cell line not named in the record; reference of the full effect not given here. Q9GZU1. activation, % (test concentration not listed). 410,000 tested, 0.12% active. AID 624414; in the data active = activation above about 50%; inconclusive = about 30% to 50%; inactive = below about 30%; note: 0% is about no effect; the text of the record puts the active cut at 80%
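Kinetic FDSS Ca2+ read in Tet-induced TRPML1-DL cells (ABD Ca8 dye plus quencher, 45-90 min RT loading): baseline, then compound, then 110 s agonist window; EC80 agonist 54-4 at 4uM final added afterwards for a 110 s antagonist window.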
D2 PAM: human D2 receptor positive allosteric modulation; DiscoveRx D2 beta-arrestin cells, luminescence, 90 min; 100% = 57 uM dopamine signal; potentiation, % (no concentration beside the values); 360,000 tested, 0.23% active; AID 624464; active = potentiation of 50% or more; inconclusive = 30% to 50%; inactive = 30% or less;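 note: compound concentration not given in the record; tested on top of an EC20 dose of dopamine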
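D2 cells co-treated with compound plus 50 nM dopamine (EC20) for 90 min at 37 deg C to detect potentiation. Beta-arrestin recruitment was read as enzyme-fragment luminescence after 1 h at ambient temperature. Full response was set by 57 uM dopamine.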
Six1-Eya2 inh: inhibitors of human Six1/Eya2 interaction; 360,000 tested, 0.56% active; AlphaScreen GST-Six1/His-Eya2 binding, biochemical; hits give low values; control for the full effect not named in the record; Q15475+O00167; activity change, % (concentration not given with the values); in the data active = activity change below about -65%; inconclusive = about -30% to -65%; inactive = above about -30%; note: % is set by controls: 0 for no effect and ±100 for the full control effect
Target sequence (O00167 whole entry, looked up): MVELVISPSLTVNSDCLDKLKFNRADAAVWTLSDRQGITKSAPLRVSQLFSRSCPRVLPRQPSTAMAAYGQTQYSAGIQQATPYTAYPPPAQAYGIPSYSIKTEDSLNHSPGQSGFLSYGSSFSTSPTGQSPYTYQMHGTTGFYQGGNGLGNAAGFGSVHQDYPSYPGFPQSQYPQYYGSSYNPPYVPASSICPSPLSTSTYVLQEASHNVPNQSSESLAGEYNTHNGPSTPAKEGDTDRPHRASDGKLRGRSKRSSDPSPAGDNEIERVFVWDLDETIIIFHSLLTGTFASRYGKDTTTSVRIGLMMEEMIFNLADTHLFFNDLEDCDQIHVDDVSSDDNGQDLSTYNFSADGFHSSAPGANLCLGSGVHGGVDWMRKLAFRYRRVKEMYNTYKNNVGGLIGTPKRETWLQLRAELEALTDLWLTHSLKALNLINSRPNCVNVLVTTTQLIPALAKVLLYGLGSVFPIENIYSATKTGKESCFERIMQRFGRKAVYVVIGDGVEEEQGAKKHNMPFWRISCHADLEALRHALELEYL
Target sequence (Q15475 whole entry, looked up): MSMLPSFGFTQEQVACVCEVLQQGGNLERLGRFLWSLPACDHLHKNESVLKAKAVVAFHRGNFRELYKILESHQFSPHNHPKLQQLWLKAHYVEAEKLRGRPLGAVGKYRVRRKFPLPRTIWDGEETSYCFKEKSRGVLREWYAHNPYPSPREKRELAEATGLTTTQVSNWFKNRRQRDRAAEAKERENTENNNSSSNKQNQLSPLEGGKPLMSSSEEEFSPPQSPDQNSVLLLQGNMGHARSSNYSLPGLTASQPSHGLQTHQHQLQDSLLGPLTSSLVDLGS
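Six1/Eya2 binding was read as AlphaScreen signal after compounds were pinned into GST-Six1 plus His-tagged Eya2 (5X stock 250/500 nM) in pH 8.0 Tris/NaCl/TCEP buffer, beads added, then incubated 1 h, 37 C, dark.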
D2 agonist: human D2 receptor agonism in beta-arrestin assay; DiscoveRx PathHunter D2 beta-arrestin, luminescence, 90 min; 100% = 57 uM dopamine signal; P14416; activation, % (test concentration not listed); AID 624465; 360,000 tested, 0.084% active; in the data active = activation above about 40%; inconclusive = about 15% to 40%; inactive = below about 15%; note: compound concentration not given in the record; the text of the record calls up to 30% inactive
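DiscoveRx PathHunter D2 beta-arrestin cells (2,100/well) attached overnight, then compound-stimulated 90 min at 37 C in HBSS/10 mM HEPES/0.1% Tween-20 buffer; beta-galactosidase complementation read by luminescence after 1 h at ambient temperature. Dopamine 57 uM final (EC100) as control.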
* = called active by the depositor; ? = inconclusive; nt = not tested or not shown; [ ] = another dose, or the depositor's remark.

The line under a structure holds: Six1-Eya2 inh	PINK1 modulator	TRPML1 agonist	D2 agonist	CtBP-E1A blk	D2 PAM
- Cn1c(=S)ccc2ccccc21
  -6.2	2.1%	0.1	-2.7	1.7	-6.7
- Cc1ccccc1CNC(=O)c1ccc(CSCc2ccccc2)cc1
  -1.2	-2.5%	2.1	0.4	3.5	-2.2
- CCOc1ccc(CC(=O)Nc2c3c(nn2C(C)(C)C)CS(=O)(=O)C3)cc1
  -2.7	-1.3%	0.0	3.5	-2.2	-3.0
- O=C(CCc1c[nH]c2ccccc12)NCCc1ccc(Cl)cc1
  -7.5	0.0%	-0.8	3.7	2.3	-4.3
- CC(C)c1cc(C(C)C)c(S(=O)(=O)N2CCNCC2)c(C(C)C)c1
  -5.1	5.1%	0.6	1.5	2.4	-2.7
- CCN(CC)c1ccc(/C=N/NC(=O)c2cccc(S(=O)(=O)N3CCOCC3)c2)c(O)c1
  ?	0.8%	11.0	-3.8	?	-2.7
- Cc1cnc(NC(=O)c2sc(Nc3ccccc3)nc2N)o1
  -3.7	3.8%	1.5	-1.3	nt	-11.5
- COc1ccc(CN2CC(=O)N(c3ccc(Cl)cc3)C2=S)cc1OC
  -4.5	0.3%	0.3	3.6	-19.8	-8.8
- O=S(=O)(Nc1ccc(Cl)cn1)c1cccs1
  5.0	1.1%	0.0	-1.3	6.3	6.5
- C[C@H](NC(=O)c1ccc(C(C)(C)C)cc1)C(=O)N1CCN(C/C=C/c2ccccc2)CC1
  -7.1	8.1%	1.4	?	-9.2	-1.9

Next section, starting with the last 4 of the part before.
The line under a structure holds: Six1-Eya2 inh	PINK1 modulator	TRPML1 agonist	D2 agonist	CtBP-E1A blk	D2 PAM
- Cc1cnc(NC(=O)c2sc(Nc3ccccc3)nc2N)o1
  -3.7	3.8%	1.5	-1.3	nt	-11.5
- COc1ccc(CN2CC(=O)N(c3ccc(Cl)cc3)C2=S)cc1OC
  -4.5	0.3%	0.3	3.6	-19.8	-8.8
- O=S(=O)(Nc1ccc(Cl)cn1)c1cccs1
  5.0	1.1%	0.0	-1.3	6.3	6.5
- C[C@H](NC(=O)c1ccc(C(C)(C)C)cc1)C(=O)N1CCN(C/C=C/c2ccccc2)CC1
  -7.1	8.1%	1.4	?	-9.2	-1.9
- C/C=C/C1=CC(=O)C[C@H](c2ccc(F)cc2)C1
  4.1	-0.2%	-0.1	-4.7	3.6	-11.3
- COc1ccc(NC(=S)NC2CCCCC2)cn1
  10.6	2.5%	0.7	-1.2	3.8	2.1
- COc1ccc(Cc2nnc(NC(=O)c3cccc(C)c3)s2)cc1
  0.0	9.4%	-0.5	5.9	-11.1	-19.3
- O=C1C(Cc2ccccc2)NC(=S)N1c1ccccc1 (configuration not stated)
  1.4	5.9%[38.3 µM]	0.7	-3.4	7.1	-16.4
- CN1C(=O)S/C(=C/c2cccn2-c2cccc(C(=O)O)c2)C1=O
  -4.1	0.9%	0.6	-0.4	-11.6	7.5
- O=C(NCCCn1ccnc1)c1cc2ccccc2oc1=O
  -7.4	0.8%	0.0	-3.6	-4.0	-22.8
- Cc1ccc(C(=O)CSc2nc(C)cc(=O)[nH]2)cc1
  17.8	-1.9%	0.1	-2.8	14.4	-17.1
- CCn1cc(/C=N\NC(=O)Cc2ccc(Cl)cc2)cn1
  4.8	-0.2%	0.2	-5.3	-16.6	-12.6
- NC(=O)c1cc(C(=O)c2ccccc2Cl)c[nH]1
  0.3	-1.1%	1.4	-1.1	-10.0	-5.1
- C(=C\c1ccccc1)/CNn1cnnc1
  -0.6	0.4%	2.0	0.1	7.4	-4.5
- O=C(CSC1=NCCS1)NCc1ccco1
  -8.8	4.1%	0.0	-1.9	-2.1	-5.7
- CCCCSc1n[nH]c(N)n1
  4.7	1.5%	-0.6	-1.7	nt	-3.3
- CC(C)(OC(=O)c1ccc(C(F)(F)F)cc1)c1cc2ccccc2c(=O)o1
  17.5	-0.3%	1.5	0.0	19.8	0.9
- COC(=O)c1ccc(NC(=O)C2CC(=O)OC2c2ccccc2)cc1 (configuration not stated)
  -15.8	0.1%	-0.5	-5.3	9.9	-5.6
- CC1CCCCC12NC(=O)N(CC(=O)N1CCN(S(=O)(=O)c3cccs3)CC1)C2=O (configuration not stated)
  5.5	0.4%	0.1	-2.6	1.1	-9.8
- O=C(O)CCc1ccc(-c2cccs2)n1-c1ccc(C(=O)O)cc1
  1.9	1.1%	-0.4	-2.1	2.0	-6.2
- CC(C)=CCC/C(C)=C/C(N)=O
  2.2	-0.6%	-0.4	-2.8	-0.9	-6.3
- O=C(CCSCc1ccccc1F)NCc1ccc(F)cc1
  0.7	0.1%	2.0	7.2	0.6	1.7
- Cc1nc(SCC(=O)N2CCC(Cc3ccccc3)CC2)[nH]c(=O)c1C
  5.9	4.1%	-0.8	-2.2	2.8	-28.9
- O=C(CN(c1ccccc1Cl)S(=O)(=O)c1ccccc1)N/N=C/c1ccccc1C(=O)O
  -4.0	-1.5%	3.9	-1.5	24.5	-14.3
- CC(C)CNS(=O)(=O)c1ccc(CCC(=O)O)cc1
  6.7	0.5%	0.6	-0.1	-0.1	-7.9
- Cc1sc2c(c1C)C(=O)/C(=C\Nc1ccccn1)S(=O)(=O)N2C
  2.6	0.3%	0.0	-5.4	8.2	-8.4
- Cc1ccc(S(=O)(=O)NCc2nc3ccccc3[nH]2)cc1
  4.1	0.6%	0.8	-6.2	-7.4	-13.1
- O=C(O)C1CSC2c3ccccc3C(=O)N12 (configuration not stated)
  3.0	nt	0.2	0.2	11.7	-5.6
- CSc1ncccc1C(=O)OCc1ccccc1Cl
  36.6	1.0%	4.7	-1.2	0.4	-35.1
- COc1ccc(C2NC(=S)N(c3ccccc3)C(C)=C2C(=O)Nc2ccccc2)cc1 (configuration not stated)
  -7.4	-0.8%	0.1	0.7	-10.4	-8.4
- Cn1c(C2=C(O)CN(c3ccc4c(c3)OCCO4)C2=N)nc2ccccc21
  3.4	nt	0.0	-1.1	-1.8	-0.9
- COc1ccc(CN2C(=O)C(Cc3ccccc3)Nc3ncnc(N4CCCCC4)c32)cc1 (configuration not stated)
  -7.9	-0.7%	-0.5	-4.9	-0.6	-23.2
- O=C(Nc1ccc2c(c1)OCCO2)C1CCN(c2ncccn2)CC1
  -0.1	-1.7%	-0.6	0.5	-19.2	2.5
- COc1ccccc1/C=C\C=N\NC(=O)CCn1nnc2ccccc21
  -4.7	6.6%	0.6	2.0	-16.4	2.7
- O=C(NCCN1CCc2ccccc2C1)C1CCN(S(=O)(=O)N2CCCCC2)CC1
  -8.6	nt	-0.4	1.6	-12.9	-6.0
- Cc1occc1-c1nnc(SCc2nnc(-c3ccc(Cl)cc3)o2)n1C
  -4.4	1.7%	-1.2	0.4	-1.6	-6.0
- CCOc1ccc2nc(NC(=O)C3CCCN(S(=O)(=O)c4cccc5nonc45)C3)sc2c1 (configuration not stated)
  -17.6	3.3%[38.3 µM]	2.6	-3.6	2.7	-8.3
- Nc1sc(-c2ccccc2)n[n+]1Cc1cccc2cccnc12
  1.1	21.5%	-0.2	0.5	3.3	-22.3
- CC(C)c1ccc(NC(=O)C2C3C=CC(CC3)C2C(=O)O)cc1 (configuration not stated)
  0.6	0.0%	1.0	0.8	2.7	-28.1
- CC1(C(=O)Nc2ccc(S(=O)(=O)Nc3ncccn3)cc2)CCCC1
  -11.6	-0.1%	-0.3	-3.8	-0.2	-7.0
- Cc1ccc2oc(=O)c3cnn(CC(=O)NCCCOC(C)C)c3c2c1
  18.5	-0.3%	0.3	-1.2	18.1	-4.1
- O=C(C(Cc1ccccc1)n1cccc1)N1CCN(c2cccc(Cl)c2)CC1 (configuration not stated)
  -19.5	6.0%	0.1	0.8	-11.2	4.0
- O=C(NCCCCCCNC(=O)C1CCCC1)C1CCCC1
  0.5	1.2%[38.3 µM]	-0.9	-0.2	4.9	-5.1
- O=c1c2ccccc2nc2n1CCC2O (configuration not stated)
  1.3	0.7%	nt	-10.1	-17.2	-24.7
- CC(=O)Oc1ccc(-c2nc3c(C)cccc3c(=O)o2)cc1
  28.2	3.6%	0.5	-6.3	0.0	-5.8
- Cc1cc(OC(C)C(=O)NNC(=O)Nc2ccc(F)cc2F)cc(C)c1Cl (configuration not stated)
  0.2	6.4%	0.7	6.0	7.6	-10.7
- CC(=O)Nc1ccc(S(=O)(=O)N2CCN(S(=O)(=O)N3CCCCC3)CC2)cc1
  -3.0	0.2%	0.4	2.6	8.7	0.2
- Nc1nonc1C(=O)NCCNC(=O)c1cccc(Cl)c1
  2.4	-0.7%	-0.1	-2.5	-9.9	-3.2
- Cc1cc(OCC(=O)NCCCN2CCOCC2)c2c(C)c(C)c(=O)oc2c1
  -2.7	0.0%	0.3	0.5	-2.1	-6.4
- Cc1ccc(S(=O)(=O)N2CCCCC2)cc1NC(=O)c1ccncc1
  7.5	1.6%	0.3	-3.8	2.6	-28.6
- N/C(=N\N=C\c1ccc(O)cc1)c1nonc1N
  -28.3	-2.6%	6.4	-0.1	-15.3	-4.9
- CCC1C(=O)CC(c2ccccc2)NC1c1ccccc1 (configuration not stated)
  5.2	0.1%	2.0	8.5	7.6	0.3
- CC(C)CC1NC(=O)c2cc3ccccc3cc2-n2c1nc1cc(Cl)ccc1c2=O (configuration not stated)
  -4.0	1.7%	0.3	2.3	-1.1	6.4
- COc1ccc(CN2C(=NC(=O)c3ccccc3)SC3CS(=O)(=O)CC32)cc1OC (configuration not stated)
  -1.1	-0.8%	1.2	1.5	6.1	-8.5

Next records follow:
The line under a structure holds: Six1-Eya2 inh	PINK1 modulator	TRPML1 agonist	D2 agonist	CtBP-E1A blk	D2 PAM
- O=C(COC(=O)c1cccnc1Cl)c1ccc(OC(F)F)cc1
  12.7	0.0%	-1.3	-2.7	-6.9	-4.1
- COc1ccc(-c2nnc(SCc3c(C)noc3C)n2N)cc1OC
  0.6	-2.9%[38.3 µM]	-0.7	2.1	6.3	-3.9
- COc1ccc(OCCCC(=O)OC(C)C(=O)Nc2ccc(NC(C)=O)cc2)cc1 (configuration not stated)
  6.6	-0.2%	-0.7	-3.3	-6.3	-5.0
- NC(=O)COC(=O)/C=C/c1ccc(S(=O)(=O)N2CCCCCC2)cc1
  -3.1	-0.9%	-0.7	0.8	1.6	-3.6
- CN(C)C(=O)c1c(NC(=O)c2ccccc2)sc2c1CCC2
  -8.6	-0.5%	-1.4	-0.5	4.2	-1.2
- CCc1ccc(S(=O)(=O)N2CCCC(N3CCN(c4ccc(OC)cc4)CC3)C2)cc1 (configuration not stated)
  ?	-2.7%	?	-4.6	6.2	-26.4
- CCOC(=O)N1CCC(Nc2c(NCCCN3CCN(CC)CC3)c(=O)c2=O)CC1
  4.5	-0.2%	2.2	-0.6	7.0	-26.9
- COc1ccccc1C(=O)Nc1ccc2c(C)cc(=O)oc2c1
  3.6	-1.3%	-1.3	-3.4	0.0	2.8
